KCNQ2 pot – KCNQ2 (rat) channel potentiation; O88943; CHO-K1 KCNQ2, FluxOR thallium flux fluorescence; hits give high values; B-score at 10 µM; 310,000 compounds, 0.54% hits;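 active = fluorescence ratio B-score at least 3 SD of library B-scores, with initial fluorescence B-score within 3 SD, cut at about 5.3 in these data; same plate scores as AID 2156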;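 note: B-score of peak minus minimum over baseline fluorescence ratio after K+ and Tl+ stimulus; positive B-score means potentiation of KCNQ2 with more thallium influx and brighter signal; only the inactives scoring about 0 or higher are listed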
Target sequence (O88943 whole entry, looked up): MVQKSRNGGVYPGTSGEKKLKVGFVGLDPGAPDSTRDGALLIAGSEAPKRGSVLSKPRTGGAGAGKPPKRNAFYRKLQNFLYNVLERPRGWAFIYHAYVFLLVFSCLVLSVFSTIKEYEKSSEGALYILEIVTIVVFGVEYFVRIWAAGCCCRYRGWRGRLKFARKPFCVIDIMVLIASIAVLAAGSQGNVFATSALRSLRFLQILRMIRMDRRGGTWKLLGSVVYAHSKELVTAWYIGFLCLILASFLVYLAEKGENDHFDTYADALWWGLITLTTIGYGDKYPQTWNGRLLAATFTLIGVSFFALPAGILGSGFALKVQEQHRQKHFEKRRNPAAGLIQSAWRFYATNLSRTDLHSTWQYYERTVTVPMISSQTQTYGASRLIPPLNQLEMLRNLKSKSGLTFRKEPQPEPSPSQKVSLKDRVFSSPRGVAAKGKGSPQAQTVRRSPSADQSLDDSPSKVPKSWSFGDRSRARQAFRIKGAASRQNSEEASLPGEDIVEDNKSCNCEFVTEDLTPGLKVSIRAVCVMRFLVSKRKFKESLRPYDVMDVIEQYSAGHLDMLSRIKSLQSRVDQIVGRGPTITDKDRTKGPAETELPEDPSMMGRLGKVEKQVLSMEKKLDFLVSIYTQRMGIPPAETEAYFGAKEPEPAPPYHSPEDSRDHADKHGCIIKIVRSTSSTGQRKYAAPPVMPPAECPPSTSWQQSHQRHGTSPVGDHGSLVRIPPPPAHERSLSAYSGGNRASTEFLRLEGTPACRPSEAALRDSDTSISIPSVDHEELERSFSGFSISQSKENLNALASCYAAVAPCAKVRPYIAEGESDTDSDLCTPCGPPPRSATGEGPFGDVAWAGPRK
KCNQ2 pot baseline – recorded beside KCNQ2 pot, whose call it bears; B-score; compound at 10 µM; measured here: initial fluorescence intensity artifact check;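 brightness before thallium and not channel activity; 0 = typical well and far values either way flag optical interference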
* = called active by the depositor. These rows are one share of the data (hit frequency here may not be typical).

SMILES	KCNQ2 pot	KCNQ2 pot baseline
O=C(NC1CCCC1)C(c1ccc(N2CCOCC2)cc1)N(C(=O)c1ccco1)c1ccccc1F (stereo not drawn)	0.7	0.59
CCOc1ccc(C(=O)Nc2ccccc2N2CCN(C(=O)c3ccccc3)CC2)cc1[N+](=O)[O-]	1.39	-3.35
O=C(CCCCC(=O)N1CCOCCOCCOCC1)OCc1ccccc1	0.33	0.06
CCOC(=O)CNC(=O)C1CCN(S(=O)(=O)c2ccc(-c3nn[nH]n3)cc2)CC1	0.32	-0.2
CC(C)COc1ccc(C/C(N)=N/n2cnnc2)cc1	2.07	-1.11
CC(=O)Nc1c(C)nn(C(C)=O)c1C	1.12	0.6
CC1CCCN(c2ccc([N+](=O)[O-])s2)C1 (stereo not drawn)	0.78	-0.21
Fc1ccc(C2c3[nH]c4ccccc4c3CCN2CCCn2cccn2)cc1 (stereo not drawn)	0.38	-0.02
CCCCN(C(=O)c1cnc2n(c1=O)CCS2)c1ccccc1	0.76	0.01
Cc1cccc(-c2c3c(=O)n(C)c(=O)n(C)c3cn2C(C)(C)C)c1	0.8	0
COCCNC(=S)N/N=C/c1ccc2c(c1)OCCO2	0.42	0.47
CN(CC(=O)Nc1ccc(F)c(F)c1F)C(=O)/C=C/c1ccc(Cl)cc1	0.07	0.32
CCOc1ccccc1CNC(=O)Cn1c(=O)oc2ccccc21	0.59	-1.27
COc1ccc(C(=O)c2c(C)oc3ccc(O)cc23)c(OC)c1	3.37	0.1
S=c1[nH]nc(-c2cccs2)n1/N=C/c1cn(-c2ccccc2)nc1-c1cccs1	6.9*	-0.58*
CCCCn1c(N)c(N(CC)C(=O)CN2C(=O)NC(C)(c3ccccc3)C2=O)c(=O)[nH]c1=O (stereo not drawn)	2.08	-0.07
CCOC(=O)Cn1c(O)c(N=NC(=O)CNC(=O)Cc2ccccc2)c2ccccc21	0.01	3.47
COc1ccc(CC(=O)c2ccc(OC)c(OC)c2C)cc1OC	3.47	-2.52
CCCCOc1ccc(C(O)(CC)CCN2CCOCC2)cc1 (stereo not drawn)	0.05	-0.29
c1ccc(CNc2ncnc3c2oc2ccccc23)nc1	0.68	-1.59
O=C(Nc1nonc1NC(=O)c1cccs1)c1cccs1	2.4	-0.55
COc1cc(S(=O)(=O)Nc2ccccc2C)ccc1Cl	0.38	-1.16
O=C(c1cccs1)N(Cc1ccccn1)Cc1ccco1	0.01	-1.78
COc1ccc(CC(=O)N[C@@H](CCSC)C(=O)N2CCC3(CC2)NCCc2[nH]cnc23)cc1	0.02	0.19
O=C(COc1ccc2c3c(c(=O)oc2c1)CCC3)N[C@@H](Cc1ccccc1)C(=O)O	1.6	-0.39
Additional entries:
SMILES	KCNQ2 pot	KCNQ2 pot baseline
CCOC(=O)Cc1csc(NS(=O)(=O)c2ccc(SC)cc2)n1	1.24	0.9
CCOc1ccc(CCNC(=O)COC(=O)c2ccc(S(=O)(=O)N3CCCC3)cc2)cc1OCC	0.05	0.02
COC(=O)c1sccc1NC(=S)NCc1ccc(Cl)cc1	7.23*	1.12*
C/C(CC(C)(C)c1ccccc1)=N\NS(=O)(=O)c1ccccc1	0.48	0.72
CCCCn1c(=O)[nH]c(=O)c2c1nc(-c1cccc(OC)c1)n2C	0.06	-0.59
N#C/C(C(=O)N1CCCC1)=C1/N=C(N)c2ccccc21	0.06	-0.94
Cc1ccc(NC(=S)NC2CC3CCCC(C2)N3Cc2cccs2)cc1 (stereo not drawn)	0.2	0.03
CCOc1ccc(C(=O)C(C)OC(=O)Cn2c(C)csc2=O)cc1 (stereo not drawn)	0.72	0.43
CC(C)Cn1c(N)c(C(=O)COC(=O)c2ccccc2F)c(=O)n(C)c1=O	1.53	0.17
CNc1oc(-c2ccccc2F)nc1S(=O)(=O)c1ccc(C)cc1	0.11	0.63
COc1ccccc1Oc1ccccc1[N+](=O)[O-]	0.79	0.69
COc1ccc(Cc2nnc(SCc3nc4ccccc4c(=O)[nH]3)o2)cc1	1.26	0.09
O=C(O)c1ccc(/C=C/c2nc3ccccc3c(=O)[nH]2)cc1	0.29	-0.04
COc1ccc(-c2nn(CCC#N)cc2C=C(C#N)C#N)cc1	1.33	-0.53
N/C(=N\OC(=O)CCC1CCCC1)c1ccncc1	0.31	-0.02
FC(F)(F)c1cccc(Cc2noc(CN3CCC(N4CCCCC4)CC3)n2)c1	1.12	0.96
CCn1nc(C(=O)OCC(=O)c2ccc(F)cc2)c2ccccc2c1=O	1.12	0.51
Cn1c(N)c(C(=O)N/N=C/c2ccccc2)sc1=S	0.09	0.01
Cc1ccc(S(=O)(=O)C2(S(=O)(=O)c3ccc(C)cc3)CC2)cc1	0.14	1.14
Clc1ccc2c(N/N=C/c3ccccc3Br)ccnc2c1	0.42	-3.47
COc1ccccc1NC(=O)CSc1ccc2nnc(-c3ccncc3)n2n1	0.16	0
Cc1cccnc1NC(=O)Nc1cccc2ccccc12	0.12	-1.16
CS(=O)(=O)N(Cc1nnc(-c2cccs2)o1)c1ccc(Cl)cc1F	1.36	-0.52
Cc1cccc(C(=O)N[C@H](C(=O)Nc2ccc(S(=O)(=O)NC3=NCCCCC3)cc2)C(C)C)c1	0.06	-1.34
O=c1[nH]cc(NCCNc2ncc(C(F)(F)F)cc2Cl)c(=O)[nH]1	1.02	1.05
Next section.
SMILES	KCNQ2 pot	KCNQ2 pot baseline
COCCNC(=O)c1cccc(OC2CCN(C(C)COc3ccccc3)CC2)c1 (stereo not drawn)	1.01	-0.23
Cc1ccc2cc3c(NC(=O)c4ccco4)nn(C)c3nc2c1	1.69	1
O=C(Nc1ccccc1C(=O)NCCN1CCOCC1)c1ccco1	0.16	-1.03
COc1ccc(NC(=O)CSCc2cc(=O)n3ccsc3n2)cc1	0.24	0.12
Cc1nnc(NC(=O)c2csc3c2CCCC3)s1	0.44	0.93
CCOc1ccc(N(CC)S(=O)(=O)c2c(C)[nH]c(=O)[nH]c2=O)cc1	0.12	0.31
Cn1c(N)c(C(=O)COC(=O)[C@@H]2CCCN2S(=O)(=O)c2ccc(Cl)cc2)c(=O)n(C)c1=O	3.09	-0.05
CCCOC(=O)CN1C(=O)c2ccc(C(=O)OCCC)cc2C1=O	1.5	2.49
CCOC(=O)N1CCN(C(=O)c2cc(COc3c(F)cccc3F)on2)CC1	0.82	0
C=CCNC(=S)Nc1sc2c(c1C(N)=O)CCCC2	2.11	-0.56
COc1ccc(NC(=O)/C(Cl)=C(/Cl)S(=O)(=O)Cc2ccc(C)cc2)cn1	5.37*	2.94*
Cc1cc2c(ncn2C)c(NS(=O)(=O)c2ccc(F)cc2)c1C	0.03	0.85
Cc1ccc(S(=O)(=O)Oc2ccc(/C=C3/C(=N)N4C(=NC3=O)SN=C4S(C)(=O)=O)cc2)cc1	0.94	1.84
CC1=C(CCN2CCN(C3CCCC3)C(CCO)C2)C(C)(C)CCC1 (stereo not drawn)	2.34	0.02
O=C(COC(=O)c1cncc(Br)c1)NCc1ccco1	1.46	0.99
CC(NCCc1ccc(S(N)(=O)=O)cc1)C(=O)NCCc1ccc(F)cc1 (stereo not drawn)	0.28	2.72
CC1CCC(NC(=O)Cn2cc3c(n2)CCCC3)CC1 (stereo not drawn)	1.12	2.18
CC(C)(C)c1nnc2sc(SCC(=O)N3CCc4ccccc43)nn2c1=O	1.23	0.07
Cc1cccc(-c2noc(CCCC(=O)NC3CCCC3)n2)c1	2.48	-0.69
Fc1ccccc1/C=N/Nc1nc2ccccc2o1	0.11	-1.04
Oc1ccc(/C=N/Nc2ccc(Cl)nn2)cc1O	0.35	1.1
Cc1cc(OCC(=O)NCC(C)C)cc(C)c1Br	2.71	0.07
O=C1CC(=O)N(c2cccc(F)c2)N1	0.59	-1.21
COc1cc(C(CCN2CCCC2)c2c(OC)cc(OC)c3ccc(=O)oc23)cc(OC)c1OC (stereo not drawn)	0.35	-0.11
CN(C)S(=O)(=O)c1cccc(NC(=O)c2ccc(N3CCOCC3)c([N+](=O)[O-])c2)c1	2.35	-1.37
Following part.
SMILES	KCNQ2 pot	KCNQ2 pot baseline
CC(OC(=O)c1cccc(S(=O)(=O)N2CCCCCC2)c1)C(=O)Nc1ccc(S(N)(=O)=O)cc1 (stereo not drawn)	1.92	0.1
CCC/C=N/Nc1nnc(Cc2ccc(OC)c(OC)c2)c(=O)[nH]1	1.69	-2.35
C/C(=N\N1CCCCC1)c1ccccc1O	0.11	0
COc1cccc(CNC(=O)Cn2ccc3cc(S(=O)(=O)N4CCCC4)ccc32)c1OC	1.52	0.95
Cc1ccc(S(=O)(=O)N2CCC(C(=O)N[C@@H](C)C(=O)NCc3ccco3)CC2)cc1	1.54	-0.1
Cc1ccc(S(=O)(=O)Nc2ccccc2C(N)=O)cc1	0.57	-0.01
COc1ccc2cc(-c3cc(C(=O)O)c4ccccc4n3)ccc2c1	0.66	1.35
O=C(c1ccc(F)cc1)N1CCN(c2ncccn2)CC1	0.97	2.14
C=CCOc1ccc(C2/C(=C(\O)c3ccc4c(c3)OCCO4)C(=O)C(=O)N2CCCN2CCOCC2)cc1 (stereo not drawn)	0.39	-0.86
Cc1ccc(OCC(=O)N/N=C\c2ccc(C)o2)c(C)c1	0.08	0.78
COc1ccc(S(=O)(=O)N2CC(C)N(C(=O)N(C)C)C2C)cc1 (stereo not drawn)	0.61	-0.36
O=C(NC1CCCC1)C(c1ccc(F)cc1)N(C(=O)c1csnn1)C1CC1 (stereo not drawn)	0.89	2.41
Nc1nnc(-c2cccc(Cl)c2Cl)c(N)n1	0.16	-0.89
O=C1CCCN1CN1CCCCC1	1.02	0.22
COc1ccc(C(=O)Sc2nncc3ccccc23)cc1	0.35	-1.32
CCOC(=O)Cc1csc(SCc2cc(=O)oc3cc(O)ccc23)n1	0.27	0.16
CN1CCn2c1nc(N1CCCCC1)nc2=O	0.9	0.07
Cc1ccc(-c2csc(NC(=S)NC(=O)c3cc4ccccc4o3)n2)cc1	0.02	-0.64
COc1cc(C(=O)NNC(=S)NC(=O)c2ccccc2C)cc(OC)c1OC	0.01	0.41
O=C(Nc1ccccc1C(=O)N/N=C/c1ccccc1)c1ccco1	0.97	-1.57
O=S(=O)(c1ccc(F)cc1)N1CCN(CC(O)COc2ccccc2F)CC1 (stereo not drawn)	0.79	0.48
Fc1ccc(-n2nnc(-c3ccnc4ccccc34)n2)cc1	1.69	-2.6
CCCC[C@@H]1CNCCN1CC1(c2ccccc2)CC1	0.05	0.86
CCc1c(C2(O)CCCCC2)[nH]c2ccc(C#N)cc12	1.91	-2.13
CCCC[N+](CC#Cc1ccccc1)(CCCC)CCCS(=O)(=O)[O-]	1.59	-1.51

Complete entries as entered above:
Record of `COc1cc(C(=O)NNC(=S)NC(=O)c2ccccc2C)cc(OC)c1OC` → KCNQ2 pot: 0.01; KCNQ2 pot baseline: 0.41
Record of `COc1ccc(S(=O)(=O)N2CC(C)N(C(=O)N(C)C)C2C)cc1` (stereo not drawn) → KCNQ2 pot: 0.61; KCNQ2 pot baseline: -0.36
Record of `CCc1c(C2(O)CCCCC2)[nH]c2ccc(C#N)cc12` → KCNQ2 pot: 1.91; KCNQ2 pot baseline: -2.13

Continuation.
SMILES	KCNQ2 pot	KCNQ2 pot baseline
Cc1ncsc1CCC(=O)N1CCCC(Nc2ccc(F)c(F)c2)C1 (stereo not drawn)	0.81	0.2
CC(C)(C)n1nc2c(c1NC(=O)Cc1ccccc1)CS(=O)(=O)C2	1.57	0.14
Cc1ccc(S(=O)(=O)Nc2c(C)nn(C)c2C)cc1	0.25	0.26
CC1=Nc2ccccc2NC(=O)C1Sc1nnc(C)s1 (stereo not drawn)	1.82	-0.65
C=CCc1ccc(OCCCCN2CC(C)OC(C)C2)c(OC)c1 (stereo not drawn)	2.38	-2.73
CCCN(CC(=O)Nc1cc(C)on1)S(=O)(=O)c1cccc(C(F)(F)F)c1	1.01	-0.23
Cc1ccsc1C(=O)NNC(=O)COc1ccccc1Cl	0.01	-0.5
CCc1ccc(C2=NN(CCC(=O)NCC3CCCO3)C(=O)CC2)cc1 (stereo not drawn)	0.05	-0.51
COc1ccc2cc(C#N)c(SCC(=O)Nc3nonc3C)nc2c1	0.48	-0.11
CCCN1/C(=C2/SC(=S)N(CC)C2=O)C=Cc2ccccc21	0.55	-0.69
COc1ccc(-c2csc3ncn(-c4ccccc4)c(=O)c23)cc1OC	2.18	0.07
COC(=O)CC1SC(=O)NC1=Nc1ccc(C)cc1 (stereo not drawn)	0.65	-0.37
CSc1oc(-c2ccco2)nc1S(=O)(=O)c1ccc(C)cc1	0.33	-0.92
O=C(O)CSCCC(=O)Nc1ccc(F)cc1	0.04	-0.05
CCc1noc(C)c1C(=O)N(CC)CC(=O)Nc1ccccc1C(F)(F)F	0.74	0.76
CC(C)OC(=O)CSc1nnc(-c2ccc(Cl)cc2)n1N	1.22	-0.95
CNc1nc(SC)nc(N(C)C#N)n1	0.61	0.16
Cc1ccc(S(=O)(=O)c2nc(S(=O)(=O)CCO)sc2N2CCOCC2)cc1	0.93	0.7
NC(=O)c1sc2nccc(Nc3ccccc3)c2c1N	1.35	-0.93
COc1cccc(CNC(=O)CCS(=O)(=O)c2cc3c(cc2C)NC(=O)CO3)c1	0.29	-0.64
O=C(Nc1ccc(S(=O)(=O)N2CCCCC2)cc1)C1CC1	1.3	-1.79
O=P(O)(CCc1ccccc1)C(O)c1ccccc1 (stereo not drawn)	0.19	0.13

Laid out differently: five of the compounds above
mol | KCNQ2 pot | KCNQ2 pot baseline
Cc1ccc(S(=O)(=O)Nc2c(C)nn(C)c2C)cc1 | 0.25 | 0.26
CC1=Nc2ccccc2NC(=O)C1Sc1nnc(C)s1 (stereo not drawn) | 1.82 | -0.65
C=CCc1ccc(OCCCCN2CC(C)OC(C)C2)c(OC)c1 (stereo not drawn) | 2.38 | -2.73
CCCN(CC(=O)Nc1cc(C)on1)S(=O)(=O)c1cccc(C(F)(F)F)c1 | 1.01 | -0.23
Cc1ccsc1C(=O)NNC(=O)COc1ccccc1Cl | 0.01 | -0.5
